PMP22 txn prim: PMP22 gene transcription modulation; S16 Pmp22-F2sN Schwann cells (luciferase reporters placed in the Pmp22 gene), FLuc/NLuc coincidence luminescence, 24 h; Potency, µM (highest dose often 57.5 µM), for inactives: top-dose activity change, negative = inhibition, actives largely listed as inhibitors; 43,000 tested, 2% active; active = clear falling dose curves in both reporters; inconclusive = both reporters move, but less clearly or upward; inactive = either reporter flat; the % is the NLuc reporter signal; also: % is scaled to controls: 0 for no effect and ±100 for the full control effect; some results filed as inactive show a strong effect at the top dose
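Transcriptional readout in edited S16(c9) cells: two luciferases reported from the Pmp22 locus, measured in turn after 24 h compound incubation.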
HTT prom inh: inhibitors of huntingtin promoter activity; AID 1508623; 48,000 tested, 0.93% active; HEK293 HTT promoter firefly luciferase reporter (activity 0% = vehicle and -100% = no light), 24 h; Potency, µM (top dose mostly 57.5 µM), inactives show at the top dose activity change, negative = inhibition, usual class: inhibitors; active = well fitted inhibition curve with a large enough effect; inconclusive = small, poorly fitted or top-dose-only effect; inactive = no such curve, though single readings can be large or run the other way; also: nearly all actives have a fitted effect of over 50% in size
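HEK293 cells carrying firefly luciferase reporters were seeded at 2,500 per well in Opti-MEM and cultured for 24 h. They were then treated with compounds at up to 57.5 uM final for 24 h at 37 degrees C before Dual-Glo luminescence readout.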
An asterisk follows results filed as active; ? = inconclusive; . = no result given; [ ] = remark or other dose. Potency is read from the fitted curve at half-maximal effect.

SMILES	PMP22 txn prim	HTT prom inh
Cc1ccccc1-c1nc2cc(NC(=O)Cc3ccc(Cl)cc3)ccc2o1	-60.7%	1.1%
Cc1nn2c(-c3ccco3)ccnc2c1-c1ccc(F)cc1	-1.4%	9.6%
Cc1ccc(NC(=O)CSc2nnc(-c3nnn(-c4ccc(F)cc4)c3C)o2)cc1Br	-8.3%	-3.0%
Cc1cc(C)c2c(=O)cc(C(=O)Nc3sc4c(c3C(=O)NCc3cccnc3)CCCC4)oc2c1	0.4%	21.1%
COc1cc2nc(SCC(=O)Nc3ccccc3C)n3nc(CCn4c(C)nc5ccccc54)nc3c2cc1OC	-19.8%	-3.1%
O=C(Nc1cccc(Cl)c1)C1CCCN1S(=O)(=O)c1cccc2cccnc12 (centres undefined)	-25.7%	-26.9%
CCOc1ccc(-c2cccc(NS(=O)(=O)c3ccc(F)cc3F)c2)nn1	10.6%	-14.1%
Cc1ccc(CN2COc3c(Cl)cc4c(-c5ccccc5)cc(=O)oc4c3C2)cc1	-1.7%	-0.6%
COc1ccccc1CNC(=O)CN1C(=O)COc2ccc(S(=O)(=O)Nc3ccccc3)cc21	-16.5%	-21.4%
Cc1ccccc1Nc1c(-c2c[nH]c3ccccc23)nc2ccc(Cl)cn12	-57.6%	0.8%
CCOC(=O)Cc1ccc(NC(=O)n2ncc3cc(Cl)ccc32)cc1	-5.0%	0.251µM*
Cc1ccc(NC(=O)CCC(=O)N2CCOc3ccccc32)c(Cl)c1	?	-17.0%
COc1cccc(NC(=O)CSC2=Nc3ccccc3C3=NC(CCC(=O)NCc4ccco4)C(=O)N23)c1 (centres undefined)	?	-21.1%
Cc1c(NC(=O)CC(C)C)cccc1-c1nc2cccnc2s1	8.3%	-28.7%
COc1ccc(-n2ccn(CC(=O)NCc3ccc(C)cc3)c(=O)c2=O)cc1OC	-25.2%	-0.4%
CCN1C(=O)c2ccccc2Sc2ccc(NC(=O)Nc3ccccc3OC)cc21	-3.0%	?
COc1ccc(Cn2c(CCC(=O)Nc3ccc(OC)c(Cl)c3)nc3cccnc32)cc1	-68.6%	?
COC(=O)c1ccc(OCC2c3cc(OC)c(OC)cc3CCN2C(=O)Cc2ccc(OC)c(OC)c2)cc1 (centres undefined)	3.7%	-18.4%
Cc1cccc(CCNC(=O)c2ccc3c(c2)nc2n3CCOC2)c1	12.9%	50.5%[activator]
CCc1cccc(NC(=O)Cn2nc(-c3cc(C)ccc3C)ccc2=O)c1	3.5%	-14.0%

Reprinted from the part before: three entries, followed by the next part.
SMILES	PMP22 txn prim	HTT prom inh
COC(=O)c1ccc(OCC2c3cc(OC)c(OC)cc3CCN2C(=O)Cc2ccc(OC)c(OC)c2)cc1 (centres undefined)	3.7%	-18.4%
Cc1cccc(CCNC(=O)c2ccc3c(c2)nc2n3CCOC2)c1	12.9%	50.5%[activator]
CCc1cccc(NC(=O)Cn2nc(-c3cc(C)ccc3C)ccc2=O)c1	3.5%	-14.0%
Cn1cc(C(=O)NCCc2ccccc2)c(=O)c2cc(S(=O)(=O)N3CCCCCC3)ccc21	-4.0%	-21.2%[11.5 µM]
Cc1ccc(NC(=O)Cn2cc(S(=O)(=O)NC(C)C)c(S(=O)(=O)NC(C)C)c2)cc1Cl	?	?
CC(C)CC(=O)N1CC(=O)Nc2ccc(F)cc2C1c1ccccc1 (centres undefined)	1.6%	-8.3%
Cc1cccc(N(C)C(=O)C2CCN(S(=O)(=O)c3cccc4nonc34)CC2)c1	-2.8%	7.7%
CCOC(=O)c1[nH]c(C)c(CCC(=O)Nc2cc(C)ccc2OC)c1C	-16.6%	-12.5%
Cc1ccccc1CN1CCN(CC(=O)NCc2ccccc2Cl)C1=O	0.1%	-6.4%
CCc1cccc(NC(=O)Cn2c(=O)n(CC3CCC(C(=O)NCCc4ccccc4)CC3)c(=O)c3ccccc32)c1 (centres undefined)	?	-9.4%
COc1ccc(S(=O)(=O)c2nnn(-c3ccccc3F)c2C)cc1	-4.0%	?
Cc1ccc(Cn2c(C(=O)O)c(CNC3CCCC3)c3ccc(C)cc32)cc1	1.6%	-14.1%
CC(CNC(=O)c1ccc(CSc2nc3ccncc3n2Cc2ccc(F)cc2)cc1)c1ccccc1 (centres undefined)	?	?
O=C(NCc1ccc(F)cc1)C(=O)NCC(c1cccs1)S(=O)(=O)c1cccs1 (centres undefined)	?	-33.4%
Cc1ccc(CCNC(=O)c2sc3ncccc3c2-n2cccc2)cc1	-30.7%	-16.1%
CCCn1cc(S(=O)(=O)c2ccccc2)c(=O)c2cc(F)c(N3CCCCCC3)cc21	?	?
COc1ccc(NC(=O)CC2C(=O)N(c3cccc(OC)c3)C(=O)N2Cc2ccc3c(c2)OCO3)cc1 (centres undefined)	1.8%	-6.1%
Cc1ccc(/C=C/c2onc(C)c2S(=O)(=O)N2CCC(C(=O)NCc3ccco3)CC2)cc1	?	-10.3%
COc1ccccc1CNc1nc(-c2ccco2)nn1S(=O)(=O)c1ccc(Cl)cc1	?	29.8%
COc1ccccc1CNC(=O)Cn1c(=O)ccc2cc(S(=O)(=O)N3CCC(C)CC3)ccc21	-16.5%	8.6%
CCc1ccccc1N(C)C(=O)Cn1cnc2sc(C)c(S(=O)(=O)N3CCC(C)CC3)c2c1=O	-55.8%	-7.1%
O=c1ccn([C@@H]2O[C@H](CO)[C@H](O)[C@@H]2F)c(=O)[nH]1	.	?
Cc1ccc(F)cc1NC(=O)c1ccc(Cn2nc(N3CCN(c4ccccc4)CC3)ccc2=O)o1	?	?
COc1ccc(OCCn2cc(C(=O)C3CCCCC3)c3ccccc32)cc1	?	-27.6%
CCOC(=O)c1ccc(NC(=O)c2cccc3c(=O)c4c([nH]c23)CCCC4)cc1	7.7%	-6.9%
CCCC(=O)OC1=CN(Cc2ccccc2)S(=O)(=O)c2ccccc21	-10.9%	-7.5%
Cc1cc(=O)[nH]c(SCC(=O)N2CCN(c3ccccc3)CC2)n1	0.7%	-12.1%
Cn1cnc(S(=O)(=O)N2CCCC(C(=O)NCc3ccc(Cl)cc3)C2)c1 (centres undefined)	1.4%	-23.7%
Cc1ccc(CNC(=O)c2sc3nc(-c4ccc(F)cc4)ccc3c2N)cc1	-2.0%	-5.9%
CCOc1ccc(N2C(=O)N(Cc3ccc(C)cc3C)c3ccccc3S2(=O)=O)cc1	?	?
Cc1ccc(-n2cc(-c3ccccc3)c3c(NC4CCCC4)ncnc32)cc1	18.9%	-17.3%
COc1ccccc1OCC(=O)NCCS(=O)(=O)N1CCN(c2ccccc2OC)CC1	-5.1%	-14.2%
CC(C)NC(=O)CCn1c(SCc2c(F)cccc2Cl)nc2c(sc3ccccc32)c1=O	?	1.1%
Cc1c(CCNC(=O)C(C)(C)C)sc2nc(-c3ccc(F)cc3)nn12	?	?
CC1=C(C(=O)OC2CCCCCC2)C(c2ccc(Cl)cc2Cl)CC(=O)N1 (centres undefined)	?	-10.4%
COc1ccc(NC(=O)Cn2cnc3c(nc4n3CCCCC4)c2=O)cc1Cl	3.5%	-10.0%
COc1ccccc1NC(=O)C1CCCN(c2ncnc3onc(-c4ccc(F)cc4)c23)C1 (centres undefined)	?	-23.9%
Cc1ccc(S(=O)(=O)Nc2ccc3[nH]c(=O)sc3c2)cc1C	-8.4%	?
COc1ccc(NC(=O)C2CCCN(S(=O)(=O)c3cccc4nonc34)C2)cc1Cl (centres undefined)	-43.3%	-17.0%
CCn1cc2nc(SCc3cc(C)ccc3C)n(CCc3ccccc3)c(=O)c2n1	?	0.9%
CCn1c(SCC(=O)Nc2ccccc2)nc2c([nH]c3ccccc32)c1=O	-24.5%	-4.2%
COc1cc(OC)c(NC(=O)Nc2ccc3c(c2)N(C)C(=O)c2ccccc2S3)cc1Cl	?	-27.6%
CCOC(=O)C1=C(C)NC(=S)NC1c1cccc(O)c1 (centres undefined)	.	-8.7%
CCc1ccc(-n2c(-c3ccccc3)c(C)n3c4c(=O)n(C)c(=O)n(C)c4nc23)cc1	-4.6%	-15.0%
CCN(C(=O)CSc1nnc(-c2ccc(Cl)cc2)o1)c1ccccc1	16.2%	1.0%
COc1cccc(N2CCN(C(=O)c3cc4c(=O)n(Cc5cccs5)ccc4nc3C)CC2)c1	6.8%	-27.0%
COc1ccc(NC(=O)CSc2nc(-c3ccccc3)[nH]c2-c2ccccc2)cc1OC	-20.2%	?
COc1ccc2c(c1)Cc1sc(NC(=O)c3cccc(Cl)c3)nc1-2	-27.5%	-14.2%
CCn1c(=O)n(-c2ccc(C)c(F)c2)c(=O)c2sc3ccccc3c21	-16.2%	-9.9%
CSc1cccc(NC(=O)CN2CCN(Cc3ccccc3C)S2(=O)=O)c1	-11.8%	-9.8%
O=C(Nc1cc(-c2nc3cc(Cl)ccc3o2)ccc1Cl)c1ccco1	?	53.1%[activator]
CC(C)NC(=O)Cn1c(=O)nc(-c2ccccc2)c2ccccc21	?	-0.7%
Cc1ccc(NC(=O)c2ccc(NC(=O)N3CCSc4ncccc43)cc2)c(Cl)c1	-26.4%	?
Cc1cccc(N(C)S(=O)(=O)c2nnc(NC(=O)C3CCCCC3)s2)c1	6.4%	-19.1%
COc1ccc2c(c1)c1c(c(=O)n(-c3ccccc3)c(=O)n1CC(=O)Nc1ccc(F)cc1)n2C	3.7%	-10.4%
COc1cc(OC)c(NC(=O)c2cnn(-c3cccc(Cl)c3C)c2C2CCN(C(=O)OC(C)(C)C)CC2)cc1Cl	-15.7%	-9.3%
CCOc1ccc(NC(=O)c2cc3c(C)nn(-c4ccccc4)c3s2)cc1	?	-29.2%
Cc1cc(N2CCCCC2)nc2ccc(NC(=O)c3ccc(F)cc3)cc12	-51.7%	-20.4%
CC1=C(C(=O)Nc2ccccc2C)C(c2ccncc2)n2nc(SCc3ccccc3)nc2N1 (centres undefined)	-7.9%	-7.3%
CCOc1ccccc1NC(=O)CSc1cn(CC(=O)N2CCCCCC2)c2ccccc12	?	-4.1%
CC1=C(C(=O)Nc2ccc(C)cc2C)C(c2ccccc2C)n2ncnc2N1 (centres undefined)	25.5%	-43.8%
CCn1c(CN2CCOCC2)nc2cc(NC(=O)c3ccc([N+](=O)[O-])cc3)ccc21	-9.0%	?
COCc1cc(C)nc2c1C(=O)NC(c1ccc(Br)cc1)N2Cc1ccccc1 (centres undefined)	-19.5%	-14.5%

Arranged by SMILES length (ascending): part of the list above
SMILES	PMP22 txn prim	HTT prom inh
COc1ccc2c(c1)Cc1sc(NC(=O)c3cccc(Cl)c3)nc1-2	-27.5%	-14.2%
CSc1cccc(NC(=O)CN2CCN(Cc3ccccc3C)S2(=O)=O)c1	-11.8%	-9.8%
CCOc1ccc(NC(=O)c2cc3c(C)nn(-c4ccccc4)c3s2)cc1	?	-29.2%
CC1=C(C(=O)Nc2ccc(C)cc2C)C(c2ccccc2C)n2ncnc2N1 (centres undefined)	25.5%	-43.8%

Going on with the list:
SMILES	PMP22 txn prim	HTT prom inh
COc1ccccc1NC(=O)Cn1c(=O)oc2cc(S(=O)(=O)NCc3ccccc3)ccc21	-55.4%	?
COc1cccc(C(=O)Nc2nc3c(s2)CCCC3)c1	?	14.9%
Cc1ccc(NC(=O)C2CCCN(S(=O)(=O)c3ccc(F)cc3)C2)cc1 (centres undefined)	?	?
CCCCNC(=O)c1cc(-c2ccc(OC)cc2)nc2n[nH]c(-c3cccc([N+](=O)[O-])c3)c12	?	-25.7%
COc1ccc(C(=O)Nc2nc(-c3nnn(-c4ccc(F)cc4F)c3C)ns2)cc1	?	?
O=C(c1ccc(F)cc1)N1c2ncnn2C2(CCCCC2)[C@@H]2CCCC[C@@H]21	-50.5%	?
Cc1onc(-c2ccccc2)c1C(=O)N[C@@H]1C(=O)N2[C@@H](C(=O)O)C(C)(C)S[C@@H]12	.	5.4%
COC(=O)CCNC(=O)NC(CCC(C)C)c1c(-n2cccc2)sc2c1CCN(C)C2 (centres undefined)	?	-12.0%
Cc1c(C(=O)N(C)C)sc2c1c(=O)n(-c1ccc(Cl)cc1)c(=O)n2Cc1ccccc1F	-7.0%	-4.4%
O=C(Nc1cccc(-c2nc3cc(Cl)ccc3o2)c1)c1ccc(F)cc1	?	2.9%
Cc1cc(C)c2c(n1)SCC(=O)N2CC(=O)Nc1c(C)cccc1C	0.2%	-12.9%
CCOC(=O)c1cc(-c2ccccc2)n(CCC(=O)Nc2nc3c(C)cccc3s2)c1C	?	?
O=C(CC1N=C2c3ccccc3N=C(SCc3ccc(F)cc3)N2C1=O)NCc1cccs1 (centres undefined)	13.1%	-14.0%
O=C1CN(C(=O)c2ccc(S(=O)(=O)N3CCCC3)cc2)C(c2ccc(F)cc2)c2cc(Br)ccc2N1 (centres undefined)	-13.5%	?
Cc1ccc(NC(=O)CSc2nc3ccccc3c3nc(CCn4cncc4C)nn23)cc1F	?	-29.1%
CC(C)C[C@H](N)c1nnc(SCc2ccc(Cl)cc2Cl)o1	?	-29.1%
CCOC(=O)c1cc(-c2ccc(OC)c(S(=O)(=O)NC3CCCCC3)c2)on1	?	-7.0%
CCOC(=O)c1c(NC(=O)c2cc(C)on2)sc(C)c1C	2.2%	-1.0%
CCOc1ccc(CN2C(=O)c3ccccc3Sc3ccc(C(=O)OC)cc32)cc1	9.5%	?
CCc1cccc(CC)c1-n1nnc2c(sc3nc(C)cc(C)c32)c1=O	-23.2%	7.0%

High-throughput results deposited in PubChem by National Center for Advancing Translational Sciences (NCATS).
